NS1 function inh: qHTS Assay for Inhibitors of Influenza NS1 Protein Function. actives 0.4% (n = 270,000). Potency, µM (titrated, usually from 46.1 µM), for the others: at the highest dose activity, positive = more growth. S. cerevisiae slowed by influenza A NS1, growth recovery by OD600. AID 2326, 2010; further: actives are rising curves; nearly all actives have a fitted effect of over 50% in size
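Growth recovery, yeast-based: influenza A NS1 expressed in S. cerevisiae causes slow growth, and suppressors are detected by OD600. The parent strain without NS1 is used as positive control.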
RE007 growth inh: qHTS Assay for Inhibitors of the HIV-1 protein Vpr; S. pombe RE007 Vpr strain, BacTiter-Glo ATP luminescence, 24 h; control for the full effect not named in the record; Potency, µM (series often up to 92.2 µM), for the others: at the highest dose activity change, negative = less growth; actives 0.21% (n = 360,000); active = well fitted falling curve with a large enough effect; inconclusive = small, poorly fitted or top-dose-only effect; inactive = no such curve, though single readings can be large or run the other way;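 further: on the % scale 0 is the no-effect control and ±100 the full control effect; nearly all actives have a fitted effect of over 50% in size; the assay follows cell death caused by Vpr and the record does not say whether a fall means rescue or toxicity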
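Fission yeast RE007 carrying one integrated HIV-1 vpr copy, seeded at OD 0.01 in PMG+AL medium with 23 nL pinned compound. Grown 24 h at 30 degrees; viability read by BacTiter-Glo luminescence after 5 min.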
Cruzain inh Det: qHTS Assay for Promiscuous and Specific Inhibitors of Cruzain (with detergent) | Potency, µM, without a hit: max response, negative = inhibition, most hits filed as inhibitors | AID 1478, 2009 | actives 0.43% (n = 200,000) | Cruzipain (Trypanosoma cruzi), P25779 | purified cruzain, Z-FR-AMC fluorescence, 0.01% Triton; active means well fitted curve in the direction sought with a large enough effect; inconclusive means small, poorly fitted or top-dose-only effect, or another doubt; inactive means no such curve, though single readings can be large; an effect the other way counts as inactive or inconclusive;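 further: plate controls were neutral wells for no effect and buffer without enzyme for full effect; nearly all actives have a fitted effect of over 40% in size; top concentration of the series not given in the record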
Target sequence (P25779 123-467 limits assumed): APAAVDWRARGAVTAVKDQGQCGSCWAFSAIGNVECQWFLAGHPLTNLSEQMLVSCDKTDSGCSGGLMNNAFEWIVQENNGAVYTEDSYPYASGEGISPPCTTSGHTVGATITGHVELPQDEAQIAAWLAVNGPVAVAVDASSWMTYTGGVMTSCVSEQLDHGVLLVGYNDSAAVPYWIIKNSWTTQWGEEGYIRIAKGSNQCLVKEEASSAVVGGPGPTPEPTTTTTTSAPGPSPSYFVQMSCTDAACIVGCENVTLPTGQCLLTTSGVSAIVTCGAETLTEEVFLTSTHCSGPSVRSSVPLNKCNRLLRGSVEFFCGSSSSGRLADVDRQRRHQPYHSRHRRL
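Cysteine protease activity tested under reducing, mildly acidic conditions (100 mM sodium acetate pH 5.5, 5 mM DTT) plus 0.01% Triton X-100. Cruzain 1.5 nM; substrate Z-FR-AMC 2 uM; 15 min compound preincubation at room temperature.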
Cruzain noTriton: qHTS Assay for Promiscuous and Specific Inhibitors of Cruzain (without detergent); purified cruzain, Z-FR-AMC fluorescence, no detergent; AID 1476, 2009; Cruzipain (Trypanosoma cruzi), P25779; actives 2.3% (n = 200,000); Potency, µM, for inactives: max response, negative = inhibition, usual class: inhibitors; active means well fitted curve in the direction sought with a large enough effect; inconclusive means small, poorly fitted or top-dose-only effect, or another doubt; inactive means no such curve, though single readings can be large; an effect the other way counts as inactive or inconclusive;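 further: plate controls were enzyme without inhibitor for no effect and buffer without enzyme for full effect; nearly all actives have a fitted effect of over 40% in size; top concentration of the series not given in the record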
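Purified cruzain at 1.5 nM, pre-incubated 15 min with compound at room temperature in 100 mM sodium acetate pH 5.5, 5 mM DTT, 0.00005% Triton X-100. Reaction started with 2 uM Z-FR-AMC; AMC fluorescence increase over 60 s gives rate.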
Marburg entry inh: qHTS for inhibitors of binding or entry into cells for Marburg Virus; Marburg virus pseudotyped entry inhibition, cell reporter; control for the full effect not named in the record; about a third of the inactives were read at about 46 µM; Potency, µM (top dose mostly 37.8 µM), inactives show top-dose activity change, negative = inhibition, most hits filed as inhibitors; actives 1.8% (n = 300,000); active = well fitted inhibition curve with a large enough effect; inconclusive = small, poorly fitted or top-dose-only effect, or effect the other way; inactive = flat fitted curve, though single readings scatter; tested in HEK293 cells; about a fifth of its hits are not listed in these tables; further: on the % scale 0 is the no-effect control and ±100 the full control effect; luciferase read-out
LASV entry inh: qHTS for Inhibitors of binding or entry into cells for Lassa Virus | Potency, µM (series often up to 37.9 µM), for the others: top-dose activity change, negative = inhibition, most hits filed as inhibitors | Lassa virus pseudotype entry inhibition, cell reporter; control for the full effect not named in the record | actives 1.2% (n = 300,000) | AID 540256, 2011; active means well fitted inhibition curve with a large enough effect; inconclusive means small, poorly fitted or top-dose-only effect, or effect the other way; inactive means flat fitted curve, though single readings scatter; tested in HEK293 cells; further: on the % scale 0 is the no-effect control and ±100 the full control effect; nearly all actives have a fitted effect of over 50% in size; luciferase read-out
2A StopGo: High Throughput Screening for Foot and Mouth Disease Virus Antivirals. human cells with a luciferase reporter of 2A StopGo recoding; control for the full effect not named in the record. Potency, µM (doses to about 57.9 µM), for inactives: at the top dose signal change, negative = less light. AID 1159524, 2015. actives 1.2% (n = 410,000); active = well fitted falling curve with a large enough effect; inconclusive = small, poorly fitted or top-dose-only effect; inactive = no such curve, though single readings can be large or run the other way; tested in HEK293T cells; further: on the % scale 0 is the no-effect control and ±100 the full control effect; nearly all actives have a fitted effect of over 45% in size; luciferase light after 4 h
SARS PLpro yeast: qHTS of Yeast-based Assay for SARS-CoV PLP; Potency, µM (doses to about 32.9 µM), without a hit: at the highest dose activity, positive = growth rescue; AID 485353, 2010; S. cerevisiae expressing SARS-CoV PLpro, growth rescue; control for the full effect not named in the record; actives 0.19% (n = 330,000); further: 0% is about no effect; nearly all actives have a fitted effect of over 55% in size; growth read by luminescence after 48 h
* marks the source's active call; other numbers are inactive results; ? = inconclusive; . = no result given; & = joins results of further samples; [ ] = dose if it differs, or a comment. Unless noted, the call rests on the fitted dose curve; in most records, active means well fitted rising curve with a large enough effect; inconclusive means small, poorly fitted or top-dose-only effect; inactive means no such curve, though single readings can be large or run the other way. Potency means the concentration at half of the fitted maximal effect. Compounds were not picked by outcome, and some 4.7% of all compounds hit somewhere here.

mol,NS1 function inh,RE007 growth inh,Cruzain inh Det,Cruzain noTriton,Marburg entry inh,LASV entry inh,2A StopGo,SARS PLpro yeast
CCC(C)NS(=O)(=O)c1ccc(NS(=O)(=O)c2ccccc2[N+](=O)[O-])cc1 (stereo unspecified),1.5%,4.1%,.,.,.,.,-15.2%,0.8%
COc1ccc(CCNC(=O)Cc2ccc(Cl)cc2)cc1OC,8.9%,-10.7%,.,.,.,.,55.0%[activator],1.7%
CCc1nc2ccc(F)cc2c(C(=O)NC2CCCCC2C)c1C (stereo unspecified),-11.2%,1.4%[3.69 µM],-9.2%,11.9%,-16.5%,0.2%,0.8%,-4.3%
CCN(CC)CCCNC(=O)c1nn(-c2ccc(C)cc2)c(=O)c2c1c1ccccc1n2C,.,.,0.3%,-0.8%,?,-14.1%[46.1 µM],-5.4%,.
Cc1ccc(N2C(=O)CC(NNc3nc4ccccc4s3)C2=O)cc1 (stereo unspecified),-2.1%,5.0%,-2.5%,6.0%,?,6.6%,0.0%,5.2%
Fc1ccc(C(Nc2ccccc2Cl)c2nnc(-c3ccccc3Cl)o2)cc1 (stereo unspecified),.,.,-3.9%,-14.9%,?,-25.6%[46.1 µM],-14.2%,.
Cc1ccc([N+](=O)[O-])cc1NC(=O)c1c(-c2ccccc2)noc1C,1.1%,-13.3%,.,.,?,26.5%,-14.0%,4.6%
CCC(C)Nc1sc(S(=O)(=O)CC)nc1S(=O)(=O)c1ccc(C)cc1 (stereo unspecified),.,.,-6.2%,5.9%,12.5%[46.1 µM],14.7%[46.1 µM],-5.9%,.
CCC(C)C(=O)Nc1cc(C(=O)OC)ccc1C(=O)OC (stereo unspecified),3.6%,-8.9%,12.6%,-1.1%,8.8%,-10.6%,-13.0%,?
CC(C(=O)Nc1ccccc1-c1ccccc1)N1CCN(S(=O)(=O)c2ccccc2)CC1 (stereo unspecified),-17.2%,4.7%,-4.7%,-3.6%,?,?,?,4.7%
CCOc1ccc(S(=O)(=O)Nc2ccc(F)cc2)c(C)c1C,-65.4%,?,-7.0%,-10.5%,-18.8%,?,18.6%,-37.9%
CCOC(=O)c1ccccc1NC(=O)COc1ccccc1-c1nnc(-c2ccccc2)o1,.,.,-7.6%,13.5%,.,4.7%[46.1 µM],?,.
Cc1ccc(CNC(=O)C2CCCC2)cc1,.,-2.8%,.,.,15.4%[46.1 µM],-13.5%[46.1 µM],7.3%,.
CC(=O)C1=NN(c2ccccc2)C(c2ccc3c(c2)OCO3)N1c1ccc(N2CCOCC2)cc1 (stereo unspecified),6.6%,.,-2.2%,7.4%,-16.7%,-14.3%,-25.5%,3.1%
O=C(NCc1ccccn1)C(=O)NCC1OCCN1S(=O)(=O)c1ccc(Br)cc1 (stereo unspecified),-4.0%,-2.4%,.,.,10.7%,3.4%,-17.7%,?
COc1ccc(OC)c(S(=O)(=O)N2CCCCC2C(=O)O)c1 (stereo unspecified),4.8%,15.5%,-0.2%,4.1%,0.2%,1.4%,-22.0%,0.0%
O=C(CNC(=O)C1COc2ccccc2O1)N/N=C\c1ccc(Cl)cc1 (stereo unspecified),-5.9%,14.9%,.,.,.,.,-6.7%,-2.3%
COc1ccc(-c2cc(N)n(S(=O)(=O)Cc3ccccc3)n2)c(OC)c1,11.7%,-7.1%,-6.3%,-2.0%,.,.,-19.2%,-18.4%
Cc1cccc(OCc2nnc(SCC(=O)NCC3CCCO3)n2C)c1 (stereo unspecified),10.4%,15.2%,.,.,5.3%[46.1 µM],?,0.4%,1.1%
CC(=O)c1c(N2CCN(c3ccc(F)cc3)CC2)nc(=S)n(Cc2ccccc2)c1C,16.1%,-6.9%,-4.0%,?,?,-23.9%,?,-5.9%

The list goes on; the last four above are carried over.
mol,NS1 function inh,RE007 growth inh,Cruzain inh Det,Cruzain noTriton,Marburg entry inh,LASV entry inh,2A StopGo,SARS PLpro yeast
O=C(CNC(=O)C1COc2ccccc2O1)N/N=C\c1ccc(Cl)cc1 (stereo unspecified),-5.9%,14.9%,.,.,.,.,-6.7%,-2.3%
COc1ccc(-c2cc(N)n(S(=O)(=O)Cc3ccccc3)n2)c(OC)c1,11.7%,-7.1%,-6.3%,-2.0%,.,.,-19.2%,-18.4%
Cc1cccc(OCc2nnc(SCC(=O)NCC3CCCO3)n2C)c1 (stereo unspecified),10.4%,15.2%,.,.,5.3%[46.1 µM],?,0.4%,1.1%
CC(=O)c1c(N2CCN(c3ccc(F)cc3)CC2)nc(=S)n(Cc2ccccc2)c1C,16.1%,-6.9%,-4.0%,?,?,-23.9%,?,-5.9%
Cc1onc(-c2ccccc2)c1C(=O)NC(C)C,9.0%,-6.0%,5.2%,1.9%,.,.,-13.1%,-1.2%
CC1CCCCN1CCCNC(=O)Cn1c(=O)c2cccn2c2ccccc21 (stereo unspecified),-4.6%,10.9%,.,.,.,.,4.1%,-3.9%
COc1ccc(-c2nnc(N3CCCCC3)c3ccccc23)cc1,9.9%,17.1%,-1.2%,-9.2%,12.7%,-8.8%,?,4.7%
CCCCc1ccc(CC(=O)O)cc1,-166.2%,1.3%,0.2%,-12.5%,14.2%&14.2%,0.0%,16.8%,-1.3%
Cc1cc(N2CCC(C)CC2)nc2ccc(NC(=O)CCC(=O)N3CCN(c4cccc(C(F)(F)F)c4)CC3)cc12,.,.,12.6µM*,?,9.4%[46.1 µM],-14.2%[46.1 µM],-9.4%,.
Cc1ccccc1COC(=O)c1cc([N+](=O)[O-])ccc1N1CCOCC1,-0.6%,1.1%,.,.,.,.,-5.6%,-9.4%
O=C(NNS(=O)(=O)c1ccc(Br)cc1)c1cccs1,1.3%,-4.0%,.,.,-2.4%[46.1 µM],8.6%,54.1%[activator],0.0%
O=C(NCC(c1ccco1)N1CCCC1)c1ccc(Cl)cc1 (stereo unspecified),-8.1%,5.1%,7.6%,-9.0%,?,-14.5%,0.3%,-7.2%
c1ccc(COc2ccc(-c3csnn3)cc2)cc1,-13.6%,13.8%,8.3%,?,17.1%,3.3%,52.6%[activator],-1.0%
CCOc1ccc(OCC(=O)Nc2cc3c(cc2C(=O)O)OCCCO3)cc1,7.4%,2.9%,.,.,-16.4%[46.1 µM],29.4%[46.1 µM],1.5%,-0.8%
O=C(NCc1cccs1)Nc1cc(Cl)ccc1Cl,5.4%,8.3%,.,.,?,-15.5%,5.6%,-0.9%
CCOc1ccc(N(CC(=O)Nc2cc(Cl)ccc2C)S(C)(=O)=O)cc1,29.1%,0.8%,.,.,.,.,-9.4%,-2.3%
COc1ccc(-n2cnc3scc(-c4ccccc4)c3c2=O)cc1,.,-8.8%,.,.,-25.9%[46.1 µM],?,-23.8%,0.4%
Cc1ccc(N(Cc2cc(=O)[nH]c3ccccc23)C(=O)c2ccco2)cc1,4.1%,25.5%,-0.7%,-11.6%,-6.2%,7.7%,-9.7%,-6.2%
O=C(NCCc1ccccn1)c1ccc(OC2CCN(CCc3ccccc3)CC2)cc1,-2.6%,-14.9%,.,.,.,.,18.1%,-2.6%
Cc1cccc(C(=O)Nc2nc3c(s2)CCCC3)c1,.,.,-11.1%,-10.5%,.,?,0.0%,.
CCN(CC)C(=O)c1sc(NC(=O)c2cccc([N+](=O)[O-])c2)c(C#N)c1C,3.1%,-7.9%,-2.2%,2.6%,27.0%,12.4%,-16.6%,5.3%
CC(C)c1nnc(NC(=O)CSc2nc3ccccc3s2)s1,-69.3%,-10.1%,2.7%,-20.1%,2.7%,-5.1%,19.1%,3.6%
CSCC(=O)N1CCC(CCC(=O)NC2CC2)CC1,-4.6%,18.7%,.,.,.,.,-2.4%,0.5%
O=C(CSc1ncnc2sccc12)Nc1ccccc1F,.,30.3%,.,.,5.0%,2.2%,-2.6%,-0.3%

The list goes on:
mol,NS1 function inh,RE007 growth inh,Cruzain inh Det,Cruzain noTriton,Marburg entry inh,LASV entry inh,2A StopGo,SARS PLpro yeast
COc1ccc(C(=O)NCc2nc(C)c(C)s2)cc1OC1CCN(C(C)C)CC1,-4.3%,-15.4%,.,.,18.5%,0.6%,-5.9%,4.5%
COn1cnnc1-c1ccccc1,-4.7%,14.5%,5.2%,2.3%,-1.9%,2.2%,0.0%,1.8%
O=C(c1ccccc1)c1nn(-c2ccccc2)c(=O)cc1C(F)(F)F,-1.0%,-2.9%,0.9%,-2.8%,?,?,-27.1%,1.9%
CCOc1ccc(NC(=S)NC(=O)c2cncc(Br)c2)cc1,.,-9.2%,.,.,-2.5%[14.2 µM],-7.9%,-9.4%,.
CN1C(=O)C(Cc2cnc[nH]2)NC1=S (stereo unspecified),3.6%,-10.7%,.,.,.,.,-7.0%,3.9%
COc1ccc(S(=O)(=O)N2CCOCC2)cc1NC(=O)Cc1coc2cc(C)ccc12,.,?,.,.,-24.8%,?,10.8%,-7.7%
Nc1nc(CSc2nc3ccccc3[nH]2)cs1,-146.8%,8.4%,-5.9%,-13.3%,?,-2.1%,19.3%,-12.2%
CC(C)OCCCNC(=O)c1ccc(NC(=O)C2=CSCCO2)cc1,-8.2%,-4.7%,.,.,?,?,3.1%,-2.5%
